FPRL1 ligand: binds the human formylpeptide receptor-like-1 FPRL1; P25090; FPRL1-expressing cells, fluorescent ligand binding inhibition, flow cytometry; inhibition, %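 (tested at 6.7 µM)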; hit rate 0.3% among 24,000; AID 441;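 note: 0% = buffer alone and 100% = receptor blocker peptide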
Target sequence (P25090 whole entry, looked up): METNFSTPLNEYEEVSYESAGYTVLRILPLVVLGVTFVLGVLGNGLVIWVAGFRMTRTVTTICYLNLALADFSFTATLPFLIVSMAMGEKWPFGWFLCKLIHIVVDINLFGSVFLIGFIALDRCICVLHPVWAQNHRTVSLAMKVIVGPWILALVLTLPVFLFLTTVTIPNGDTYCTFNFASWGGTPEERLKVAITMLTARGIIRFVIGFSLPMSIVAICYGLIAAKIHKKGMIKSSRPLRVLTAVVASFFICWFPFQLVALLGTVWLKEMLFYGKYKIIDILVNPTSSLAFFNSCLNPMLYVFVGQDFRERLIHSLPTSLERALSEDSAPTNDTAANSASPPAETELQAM
VCAM-1 down: inhibitors of TNFa-induced VCAM-1 surface display, cell-based, plate reader, pooled HUVEC, TNFa stimulus (AID 454). HUVEC TNFa-induced VCAM-1 surface immunofluorescence, plate reader; numbers were filed only for top-ranked candidate wells. hit rate 0.2% among 10,000. inhibition, % at 5 µM;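 active = compound among top-ranked inhibitors of TNF-induced VCAM-1 adhesion protein staining, with the hit upheld by image or statistical review; inactive = the rest, including hits rejected on review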;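 note: 0% = TNFa with vehicle and 100% = cells without TNFa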
FPR binder: binds the human formylpeptide receptor FPR; P21462; FPR-expressing cells, fluorescent ligand binding, flow cytometry; inhibition, %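 (tested at 6.7 µM)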; hit rate 0.74% among 24,000; AID 440;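 note: 0% = buffer wells and 100% = receptor blocker peptide wells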
Target sequence (P21462 whole entry, looked up): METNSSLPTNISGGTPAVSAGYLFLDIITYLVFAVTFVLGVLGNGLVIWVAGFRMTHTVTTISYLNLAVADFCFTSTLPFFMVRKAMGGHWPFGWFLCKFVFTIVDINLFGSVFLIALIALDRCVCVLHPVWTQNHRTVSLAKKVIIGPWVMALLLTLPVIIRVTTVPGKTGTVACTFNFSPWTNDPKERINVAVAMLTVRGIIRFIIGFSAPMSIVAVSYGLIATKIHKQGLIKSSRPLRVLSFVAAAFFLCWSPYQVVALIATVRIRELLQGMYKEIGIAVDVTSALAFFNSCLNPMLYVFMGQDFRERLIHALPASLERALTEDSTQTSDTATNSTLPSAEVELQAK
VCAM-1 up imaging: enhancers of VCAM-1 display on endothelial cells, imaging, high-content imaging, pooled HUVEC, TNFa stimulus (AID 457). hit rate 0.2% among 10,000. Pooled HUVEC, TNFa-induced VCAM-1 immunofluorescence imaging; hits of this screen are not shown here. calls only;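 active = a top-ranked rise in VCAM-1 staining upheld on image or statistical review; inactive = the rest, including candidates rejected on review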;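 note: compounds tested at 5 µM in the well; cells exposed to compound for 24 hours before fixing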
VCAM-1 imaging: inhibitors of TNFa-induced VCAM-1 surface display, imaging, high-content imaging, pooled HUVEC, TNFa stimulus (AID 456). HUVEC TNFa-induced VCAM-1 surface expression, immunofluorescence imaging; numbers were filed only for top-ranked candidate wells. inhibition, % at 5 µM; hits with a dose series show IC50 in µM. hit rate 0.2% among 10,000;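 active = top tenth filtered wells with inhibition above zero that passed visual or statistical confirmation; inactive = the rest, including hits rejected on review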;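 note: 0% = stimulated vehicle wells and 100% = unstimulated cells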
The depositor's hits bear a star; i = inactive; / = not tested or not shown.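 Rule for the calls, unless noted: active = mean above 30%; inconclusive = self-fluorescent; inactive = the rest.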 An excerpt, so the mix of outcomes need not match the whole.

SMILES | FPRL1 ligand | VCAM-1 down | FPR binder | VCAM-1 up imaging | VCAM-1 imaging
O=C(CCn1c(=O)oc2ccccc21)NCc1cccs1 | -46 | / | -6 | / | /
C=CCN=C1CC(C)(C)CC(=O)/C1=C(/O)CCC(=O)OC | -3 | / | 2 | / | /
c1ccc(CCc2nn3c(Cn4cnc5ccccc54)nnc3s2)cc1 | -12 | i | 17 | i | i
COC(=O)C1=C(C)NC(=O)C1(NC(=O)c1cccnc1)C(F)(F)F (configuration not stated) | -1 | i | -6 | i | i
COc1cccc(-n2nnc3c(=O)n(Cc4c(F)cccc4Cl)cnc32)c1 | -9 | / | 3 | / | /
Cc1oc2ccc(OCC(N)=O)cc2c1C(=O)OC(C)C | -1 | / | 6 | / | /
COc1ccc(NC(=O)Cn2cnc3c(cnn3-c3ccc(C)c(C)c3)c2=O)c(OC)c1 | 2 | / | -4 | / | /
Cc1ccc2cccc(O)c2[n+]1[O-] | 4 | / | 1 | / | /
CCCCCn1c(CN2CCN(c3cccc(Cl)c3)CC2)nc2c1c(=O)n(C)c(=O)n2C | 3 | i | 0 | i | i
CC(C)(C)NC(=O)C(Cc1ccccc1)NS(=O)(=O)c1cccc2nsnc12 (configuration not stated) | 1 | i | -5 | i | i
O=C(NCCc1ccccc1)C1CCCN(S(=O)(=O)c2cnc[nH]2)C1 (configuration not stated) | 0 | / | -2 | / | /
CN(c1ccccc1)C(c1ccc(F)cc1)c1nnnn1CC1CCCO1 (configuration not stated) | 2 | i | -1 | i | i
c1ccc(-c2nc3ccccc3o2)nc1 | -2 | / | -2 | / | /
O=C(NCCc1c[nH]c2ccccc12)c1ccc(S(=O)(=O)NCc2ccco2)cc1 | -7 | i | -2 | i | i
COc1ccccc1Nc1ccc(C(=O)NC2CCCCC2)cn1 | 4 | i | 0 | i | i
COc1ccc(CCNS(=O)(=O)c2cccc(C(=O)O)c2)cc1OC | 2 | / | 6 | / | /
COc1ccc(CN2CC(C(=O)NCc3cccc(OC)c3)CC2=O)cc1 (configuration not stated) | 6 | / | -4 | / | /
Cc1cc(NC(=O)CSc2nc3ccccc3c(=O)n2CCCC(=O)NCc2ccco2)n[nH]1 | -4 | / | 8 | / | /
O=C(NCc1ccccn1)c1cccs1 | -5 | i | 0 | i | i
COc1ccc(C(=O)Nc2ccc(N3CCN(c4ccc(OC)cc4)CC3)c(C#N)c2)cc1 | 2 | / | -4 | / | /
CC(CCc1ccccc1)NC(=O)CN1CCN(Cc2ccccc2)C1=O (configuration not stated) | 1 | / | 4 | / | /
CCOc1ccccc1OCC(=O)NCc1ccco1 | -7 | i | -7 | i | i
COc1cccc(-n2ccnc2SCC(=O)NCc2ccccc2)c1 | -4 | / | 2 | / | /
CN(C)CCCNC(CC(=O)Nc1ccc(Cl)cc1)C(=O)O (configuration not stated) | 0 | / | -5 | / | /
CCOC(=O)N1CCC(NC(=O)c2sc3nc4n(c(=O)c3c2C)CCCC4)CC1 | 0 | / | 0 | / | /
O=C1CC2CS(=O)(=O)CC2N1C1CCCCC1 (configuration not stated) | -1 | / | -4 | / | /
CCOC(=O)c1ccc(NC(=O)C2CCN(S(=O)(=O)c3ccccc3)CC2)cc1 | -4 | / | -1 | / | /
O=C(O)c1[nH]c2ccc(Cl)cc2c1CC(=O)N1CCN(C(=O)c2ccco2)CC1 | -1 | i | 2 | i | i
CC1CCN(CCCNC(=O)C2CCC(=O)N2C2CCCC2)CC1 (configuration not stated) | 0 | / | -3 | / | /
COC(=O)c1nnn(CC(=O)Nc2cccc(OC)c2)c1C(=O)OC | 6 | / | 9 | / | /
COc1ccccc1S(=O)(=O)Cc1ccc(C(=O)NCc2ccc3c(c2)OCO3)o1 | 10 | / | 4 | / | /
CCOC(=O)N1CCN(C(=O)C2CCN(S(=O)(=O)N(CC)CC)CC2)CC1 | 0 | / | -2 | / | /
CCOC(=O)N1CCC(c2cc(=O)n3[nH]cc(C(=O)OC)c3n2)CC1 | 4 | i | 7 | i | i
COc1ccc(NC(=O)c2cc3cc(OC)ccc3oc2=N)cc1 | -2 | / | -6 | / | /
O=C(CSc1ncnc2ccccc12)N1CCN(c2ccccc2)CC1 | 0 | i | -2 | i | i
CC(C)c1ccc(C2CC(=O)N3CN(C)CSC3=C2C#N)cc1 (configuration not stated) | 4 | / | 0 | / | /
CC1(C)CC(=O)C2=C(C1)Nc1nc(SCCN3CCOCC3)[nH]c(=O)c1C2c1cccs1 (configuration not stated) | 4 | i | 2 | i | i
CCc1ccc(-c2nc(CN3CCC(C(=O)NCc4ccco4)CC3)c(C)o2)cc1 | 0 | / | -6 | / | /
CCCCN(Cc1cc2cc(OC)ccc2[nH]c1=O)C(=O)COc1ccccc1 | -2 | i | -4 | i | i
Cc1nc(NS(=O)(=O)c2ccccc2)sc1NC(=O)OC(C)C | 3 | i | 5 | i | i
CCn1c(C(=O)N2CCC(C(=O)N3CCN(c4ccccn4)CC3)CC2)cc2sccc21 | 5 | i | -5 | i | i
CCN1CCCC1CNC(=O)c1cc2c(-c3cccc(OC)c3)nn(C)c2s1 (configuration not stated) | 1 | / | 2 | / | /
CCOC(=O)CN1CC23C=CC(O2)C(C(=O)NC2CCCCC2)C3C1=O (configuration not stated) | -15 | / | -12 | / | /
COC(=O)c1cc2ccsc2n1CC(=O)N(C)c1ccccc1 | -3 | i | -2 | i | i
Cc1ccc(-n2c(SCC(=O)Nc3nccs3)nc3c(c2=O)SCC3)cc1 | 1 | / | 2 | / | /
OC1(c2cccc(C(F)(F)F)c2)CCN(c2ccc(-c3ccccc3)nn2)CC1 | -1 | i | -6 | i | i
COC(=O)c1ccc2c(c1)nc(C)n2CCO | 2 | i | 10 | i | i
CCOC(=O)c1sc(=NC(=O)c2ccc(OC)c(OC)c2)n(C)c1C | 4 | i | 6 | i | i
Cc1cccc(Nc2ccccc2C(=O)OCC(=O)N2CCOCC2)c1C | -4 | / | -8 | / | /
CC(=O)N1CCc2cc(Br)cc(S(=O)(=O)NCC3CCCO3)c21 (configuration not stated) | 7 | / | -4 | / | /
CN1CCN(CCCNC(=O)Nc2cccc3ccccc23)CC1 | 32* | / | 5 | / | /
COC(=O)c1cccc(C(=O)Nc2ccc(C)cc2Br)n1 | -1 | / | 3 | / | /
Cc1ccc(C)c(N2CCN(C(=O)c3cc4ccccn4n3)CC2)c1 | -2 | i | -4 | i | i
CCOC(=O)c1[nH]c(C)c(C(=O)N2CCc3ccccc32)c1C | -7 | / | -4 | / | /
COc1ccc(NC(C)=O)cc1NC(=O)CN1CCN(CC(=O)Nc2ccc(Cl)cc2)CC1 | -1 | / | -1 | / | /
CC(=O)c1c(N)n(C)c(=O)n(C)c1=O | 1 | / | -2 | / | /
Cc1occc1-c1nnc(SCC(=O)N2CCOCC2)n1Cc1ccco1 | 2 | i | 5 | i | i
Cc1ccc(S(=O)(=O)Cc2ccc(C(=O)N3CCN(Cc4ccccc4)CC3)o2)cc1 | -4 | i | 4 | i | i
CCOC(=O)c1cc(CC)sc1NC(=O)COC | 3 | i | 9 | i | i
O=C(Cn1c(=O)[nH]c2ccsc2c1=O)N1CCN(c2ccc(F)cc2)CC1 | -4 | i | -2 | i | i

More compounds follow:
SMILES | FPRL1 ligand | VCAM-1 down | FPR binder | VCAM-1 up imaging | VCAM-1 imaging
COc1ccc(N(CC(=O)Nc2cccc(C(=O)O)c2)S(=O)(=O)c2c(C)noc2C)cc1 | 3 | / | -6 | / | /
CC1CCCC(NC(=O)CSc2ncccc2C(=O)O)C1C (configuration not stated) | -2 | i | -1 | i | i
COc1ccc(-c2cc3nc4n(c(=O)c3s2)CCC4)cc1 | 2 | i | 1 | i | i
CC1(C)Cc2noc(N)c2C(C)(C)N1O | -2 | i | 4 | i | i
O=C(CCS(=O)(=O)c1cccs1)NC1CCCCCC1 | -6 | / | -6 | / | /
CCCCN=CC1=C(O)C(C(=O)OC)C(C)(C)CC1=O (configuration not stated) | 2 | i | -8 | i | i
CC1=C(C(=O)Nc2ccc(F)cc2)C(c2cccc(C)c2)n2nc(CCCO)nc2N1 (configuration not stated) | -2 | i | 4 | i | i
COc1ccc(CNC(=O)CN(c2cc(C)cc(C)c2)S(=O)(=O)c2c(C)noc2C)cc1 | -2 | / | -3 | / | /
CCOC(=O)N1CCN(C(=O)CCc2c(C)nc3c(c(C)nn3-c3ccc(C)c(C)c3)c2C)CC1 | -8 | i | 0 | i | i
O=C(Nc1nnc(-c2ccccc2)o1)Nc1ccccc1Cl | -6 | / | -2 | / | /
O=C(C1=C(O)C(=O)N(CC2CCCO2)C1c1cccnc1)c1ccco1 (configuration not stated) | -6 | / | 39* | / | /
CCn1c(=O)cc(OCC(=O)Nc2ccccc2N2CCN(C)CC2)c2ccccc21 | 2 | / | -1 | / | /
Cc1cc(NC(=O)C2CCCN(S(=O)(=O)c3c(C)noc3C)C2)no1 (configuration not stated) | 11 | / | 11 | / | /
Cc1onc(-c2ccccc2)c1C(=O)Nc1ccc(OC(C)C)cc1 | -4 | / | 5 | / | /
COc1ccc2cc3cc(C(=O)NCc4ccccn4)oc3nc2c1 | -2 | / | 4 | / | /
CCCCn1nnnc1SCC(=O)N1CCN(C(=O)c2ccco2)CC1 | -5 | i | 2 | i | i
COc1ccc(S(=O)(=O)Nc2ccc(C)cc2)cc1OC | -3 | / | -4 | / | /
CCCCNC(=O)OCCNC(=O)Oc1cccc(C)c1 | -8 | / | -1 | / | /
CCOC(=O)N1CCC(NC(=O)CCc2c(C)nc3c(c(C)nn3-c3ccccc3)c2C)CC1 | 3 | / | 4 | / | /
CCOc1ccc(/C=N/n2cnnc2)cc1 | 2 | i | 1 | i | i

One compound at a time (already shown).
COc1ccc(S(=O)(=O)Nc2ccc(C)cc2)cc1OC is listed with FPRL1 ligand = -3; VCAM-1 down = /; FPR binder = -4; VCAM-1 up imaging = /; VCAM-1 imaging = /
CCOc1ccc(/C=N/n2cnnc2)cc1 is listed with FPRL1 ligand = 2; VCAM-1 down = i; FPR binder = 1; VCAM-1 up imaging = i; VCAM-1 imaging = i
CC1=C(C(=O)Nc2ccc(F)cc2)C(c2cccc(C)c2)n2nc(CCCO)nc2N1 (configuration not stated) is listed with FPRL1 ligand = -2; VCAM-1 down = i; FPR binder = 4; VCAM-1 up imaging = i; VCAM-1 imaging = i

Next results:
SMILES | FPRL1 ligand | VCAM-1 down | FPR binder | VCAM-1 up imaging | VCAM-1 imaging
O=C(CSc1nnc(NC(=O)CN2CCOCC2)s1)Nc1ccccc1 | 0 | / | 0 | / | /
CSc1nc(C2CC2)cc(-c2cccs2)c1C#N | 0 | / | 3 | / | /
Cc1ccc2oc(=O)c3cnn(CC(=O)N(CCC(C)C)Cc4ccco4)c3c2c1 | 4 | / | 5 | / | /
CCCSc1nc2c(cnn2-c2ccc(Cl)cc2)c(=O)[nH]1 | -3 | i | -4 | i | i
CCn1c(=N)n(CC(=O)C23CC4CC(CC(C4)C2)C3)c2ccccc21 | 10 | i | 3 | i | i
CCCOc1ccc(/C(O)=C2/C(=O)C(=O)N(CCCN3CCOCC3)C2c2ccncc2)cc1 (configuration not stated) | 13 | / | 8 | / | /
CCOC(=O)CSc1nnc(CNC(=O)Cc2ccccc2)n1C | 8 | / | 1 | / | /
COc1ccc(S(=O)(=O)Cc2ccc(C(=O)N3CCN(c4ccccc4)CC3)o2)cc1 | -1 | i | -4 | i | i
CCOC(=O)c1cccc(NC(=O)C2CCCN(S(=O)(=O)c3c(C)nn(C)c3C)C2)c1 (configuration not stated) | -1 | / | -9 | / | /
CC(C)(C)SCCNC(=O)CSc1ccccc1 | 0 | i | 6 | i | i
CCOC(=O)/C=C1\SCC(=O)N1Cc1nnc(-c2ccccc2Br)o1 | 3 | i | 20 | i | i
COc1cccc(CNC(=O)C2CCN(S(=O)(=O)c3ccc(F)cc3)CC2)c1 | -5 | i | 4 | i | i
COC(=O)C1=C(C)Nc2nnnn2C1c1ccc(Cl)cc1Cl (configuration not stated) | -3 | i | -1 | i | i
COc1ccccc1CN1CCCC(C(=O)N(C)Cc2ccccc2)C1 (configuration not stated) | 0 | i | 0 | i | i
CCC1CCCN1Cn1cnc2c([nH]c3ccccc32)c1=O (configuration not stated) | 6 | / | 4 | / | /
CC(c1ccco1)N(C(=O)c1ccc(S(=O)(=O)N2CCCCC2)cc1)c1ccccn1 (configuration not stated) | -3 | i | -5 | i | i
COc1ccc(N2C(=O)C3CCCN3C2c2cccc(F)c2)cc1Cl (configuration not stated) | -11 | / | -3 | / | /
CN1CCN(c2nc(-c3cccs3)cc(C(F)(F)F)n2)CC1 | 2 | / | -4 | / | /
COc1cc(NC(=O)c2noc3c2CCCC3)c(OC)cc1Cl | -2 | / | -6 | / | /

Bioassay records deposited in PubChem BioAssay by several laboratories.
